Assay outcomes as filed in PubChem BioAssay.
HIV Env fusion = inhibitors of HIV-1 Env-driven cell-cell fusion, primary screen, HeLa-JRFL effector, CEM21 target cells, luciferase | inhibition, % at 12.3 µM | 360,000 tested, 1.1% active | AID 651610, 2012;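 active = mean replicate inhibition score of at least 50 and every replicate individually at or above 50; inconclusive = only one of the two criteria met; inactive = mean below 50 and not all replicates reaching 50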;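 also: 0% = plate neutral controls and 100% = maraviroc near 300 nM; one replicate is shown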
Starred values were filed as active, the others as inactive; ? = inconclusive; [ ] = another dose, or the depositor's remark. A portion of the library. The share of hits here may be higher or lower than overall.

Preview, 4 compounds:
SMILES | HIV Env fusion
CS(=O)(=O)N1C[C@H](O)COC[C@H]2O[C@@H](CC(=O)NC3Cc4ccccc4C3)CC[C@@H]21 | 1[16.7 µM]
COCC(=O)N1C[C@@H](C)[C@H](OC)CN(C)C(=O)c2ccc(NS(C)(=O)=O)cc2OC[C@@H]1C | -8[16.7 µM]
CO[C@@H]1CN(C)C(=O)c2ccc(NS(=O)(=O)c3ccc(F)cc3)cc2OC[C@@H](C)NC[C@@H]1C | -14[16.7 µM]
CC(=O)N(C)C[C@@H]1Oc2cc(C3=CCCCC3)ccc2S(=O)(=O)N([C@@H](C)CO)C[C@@H]1C | 13[16.7 µM]

This part in full (from the top)
SMILES | HIV Env fusion
CS(=O)(=O)N1C[C@H](O)COC[C@H]2O[C@@H](CC(=O)NC3Cc4ccccc4C3)CC[C@@H]21 | 1[16.7 µM]
COCC(=O)N1C[C@@H](C)[C@H](OC)CN(C)C(=O)c2ccc(NS(C)(=O)=O)cc2OC[C@@H]1C | -8[16.7 µM]
CO[C@@H]1CN(C)C(=O)c2ccc(NS(=O)(=O)c3ccc(F)cc3)cc2OC[C@@H](C)NC[C@@H]1C | -14[16.7 µM]
CC(=O)N(C)C[C@@H]1Oc2cc(C3=CCCCC3)ccc2S(=O)(=O)N([C@@H](C)CO)C[C@@H]1C | 13[16.7 µM]
COc1ccccc1NC(=O)C[C@H]1CC[C@H]2[C@@H](COc3ccc(NS(C)(=O)=O)cc3C(=O)N2C)O1 | 2[16.7 µM]
COc1cccc(C#Cc2ccc([C@@H]3[C@H](C#N)N(C(=O)C4CCCC4)[C@H]3CO)cc2)c1 | -19[16.7 µM]
C[C@@H]1CN([C@@H](C)CO)C(=O)c2cc(C3=CCCCC3)cnc2O[C@H]1CN(C)S(C)(=O)=O | -9[16.7 µM]
CO[C@@H]1CN(C)C(=O)c2cc(NS(=O)(=O)c3cccc(F)c3)ccc2OC[C@H](C)N(C(=O)Cc2cccnc2)C[C@@H]1C | 3[16.7 µM]
CCCC(=O)Nc1ccc2c(c1)OC[C@@H](C)N(Cc1ccc(F)cc1)C[C@@H](C)[C@@H](OC)CN(C)C2=O | -26[16.7 µM]
C[C@H](CO)N1C[C@H](C)[C@H](CN(C)S(=O)(=O)c2ccc(F)cc2)Oc2ncc(-c3ccccc3)cc2C1=O | 13[16.7 µM]
COc1ccc2c3c(n(C)c2c1)[C@@H](CO)N(C(=O)c1ccc(F)cc1)CC31CCN(C(=O)c2ccc(F)cc2)CC1 | 4[16.7 µM]
COc1cccc(NC(=O)N[C@@H]2CC[C@H](CC(=O)N3CCCCC3)O[C@H]2CO)c1 | -29[16.7 µM]
COc1ccccc1Cc1c(-c2ccc(F)cc2)nc2ccc(C)cn12 | -25
COc1cccc(S(=O)(=O)Nc2ccc3c(c2)OC[C@H](C)N(Cc2ccccc2F)C[C@@H](C)[C@@H](OC)CN(C)C3=O)c1 | 16[16.7 µM]
C[C@H]1CN([C@@H](C)CO)C(=O)c2cc(NC(=O)C3CCCCC3)ccc2O[C@@H]1CN(C)C(=O)NC1CCCCC1 | -3[16.7 µM]
Cc1noc(C)c1S(=O)(=O)Nc1ccc2c(c1)C(=O)N([C@@H](C)CO)C[C@H](C)[C@H](CN(C)S(=O)(=O)c1c(C)noc1C)O2 | -6[16.7 µM]
C[C@@H]1CCCCO[C@@H](CN(C)C)[C@H](C)CN([C@H](C)CO)C(=O)c2cc(NS(=O)(=O)c3cn(C)cn3)ccc2O1 | 14[16.7 µM]
COc1cccc(C(=O)N[C@@H](Cc2cccnc2)C(=O)N2CCC[C@H]2C(=O)NC2CCCC2)c1 | 15
O=C(C[C@@H]1C[C@@H]2c3cc(NS(=O)(=O)c4ccc(F)cc4)ccc3O[C@@H]2[C@@H](CO)O1)NCc1ccc(Oc2ccccc2)cc1 | -12[16.7 µM]
COCCN1CCCc2nc(-c3ccc(Br)cc3)ccc21 | -72
COc1ccc(CN(C)C[C@H]2Oc3ccc(NC(=O)Nc4c(C)noc4C)cc3C(=O)N([C@H](C)CO)C[C@@H]2C)cc1 | -5[16.7 µM]
CO[C@H]1CN(C)C(=O)c2cc(C#N)ccc2OCC[C@@H]2CC[C@H](OC)[C@@H](CN(C)C(=O)[C@H]1C)O2 | 0[16.7 µM]
C[C@H]1CN([C@@H](C)CO)C(=O)Cc2cc(NS(=O)(=O)c3ccc(F)cc3)ccc2O[C@H]1CN(C)C(=O)Nc1ccc2c(c1)OCO2 | -6[16.7 µM]
COc1ccc2c(c1)C(NC(=O)C(F)(F)F)CC21CCCCC1 (configuration not stated) | 2
CCS(=O)(=O)N[C@@H]1CC[C@@H](CC(=O)N2CCCCC2)O[C@@H]1CO | 10[16.7 µM]
O=C(NC1CCCC1)[C@@H]1CCCN1C(=O)[C@@H](NS(=O)(=O)c1ccc(F)cc1F)c1ccccc1 | 11
CC(C)NC(=O)Nc1ccc2c(c1)CC(=O)N([C@H](C)CO)C[C@H](C)[C@@H](CN(C)CC1CC1)O2 | 8[16.7 µM]
C[C@@H]1CN([C@@H](C)CO)C(=O)Cc2cc(NS(=O)(=O)c3cn(C)cn3)ccc2O[C@@H]1CN(C)S(=O)(=O)c1ccc(F)cc1 | -1[16.7 µM]
COc1ccccc1C(=O)NC1CCCCN(C)C1=O (configuration not stated) | 5
CN1C(=O)c2cc(NS(=O)(=O)c3ccccc3F)ccc2OC[C@@H]2O[C@H](CC(=O)NC3Cc4ccccc4C3)CC[C@@H]21 | 63*[16.7 µM]

Records above marked active in HIV Env fusion:
SMILES | HIV Env fusion
CN1C(=O)c2cc(NS(=O)(=O)c3ccccc3F)ccc2OC[C@@H]2O[C@H](CC(=O)NC3Cc4ccccc4C3)CC[C@@H]21 | 63*[16.7 µM]

The listing continues:
SMILES | HIV Env fusion
COC(=O)[C@]12C[C@H](CC(=O)N3CCN(C(=O)C4CC4)CC3)C(=O)N(Cc3ccccc3)C1=C[C@H](C(C)C)O[C@@H]2C1CC1 | -10
CO[C@@H]1CN(C)C(=O)c2ccc(NC(=O)C3CC3)cc2OC[C@H](C)N(Cc2ccncc2)C[C@@H]1C | 12[16.7 µM]
C[C@@H]1CCCCO[C@@H](CN(C)C)[C@H](C)CN([C@@H](C)CO)C(=O)c2cc(NC(=O)Nc3ccc(F)cc3)ccc2O1 | -6[16.7 µM]
C[C@H]1CN([C@@H](C)CO)C(=O)c2ccccc2-c2ccccc2CO[C@@H]1CN(C)C(=O)CCC(F)(F)F | 57*[16.7 µM]
O=C1c2ccccc2C2Cc3nnccc3CN12 (configuration not stated) | 6
COc1ccccc1-c1ccc([C@@H]2C[C@H]3[C@H](CON3C)CN2CC2CCCCC2)cc1 | 11
CCCNC(=O)N1C[C@H](O)COC[C@H]2O[C@@H](CC(=O)NCc3ccncn3)CC[C@@H]21 | 13[16.7 µM]
CCC(=O)N1C[C@H](O)COC[C@H]2O[C@@H](CC(=O)NC)CC[C@@H]21 | 3[16.7 µM]
CO[C@H]1CN(C)C(=O)c2cc(C#N)ccc2OCC[C@H]2CC[C@@H](OC)[C@@H](CN(C)C(=O)[C@@H]1C)O2 | -9[16.7 µM]
CCCNC(=O)Nc1ccc2c(c1)C(=O)N(C)C[C@H](OC)[C@H](C)CN(Cc1ccccn1)[C@@H](C)CO2 | -2[16.7 µM]
CS(=O)(=O)Nc1ccc2c(c1)[C@@H]1C[C@H](CC(=O)NCC3CC3)O[C@@H](CO)[C@@H]1O2 | 7[16.7 µM]
Cc1ccc(S(=O)(=O)N[C@@H]2CC[C@H](CCn3cc(-c4cccnc4)nn3)O[C@H]2CO)cc1 | 1[16.7 µM]
O=C(C[C@@H]1CC[C@@H]2[C@H](COC[C@@H](O)CN2Cc2nccs2)O1)NCc1ccccc1Cl | 4[16.7 µM]
COc1ccc(-n2c(SCC(=O)Nc3nccs3)nnc2-c2ccc(Cl)cc2)cc1 | 16
Cc1nc(S(=O)(=O)N[C@@H]2CCCN(Cc3cccc(OCCO)c3)C2)cn1C | -15[16.7 µM]

Part of the list above in order of molecular weight, ascending.
SMILES | HIV Env fusion
CCCNC(=O)N1C[C@H](O)COC[C@H]2O[C@@H](CC(=O)NCc3ccncn3)CC[C@@H]21 | 13[16.7 µM]
CO[C@H]1CN(C)C(=O)c2cc(C#N)ccc2OCC[C@H]2CC[C@@H](OC)[C@@H](CN(C)C(=O)[C@@H]1C)O2 | -9[16.7 µM]
CO[C@@H]1CN(C)C(=O)c2ccc(NC(=O)C3CC3)cc2OC[C@H](C)N(Cc2ccncc2)C[C@@H]1C | 12[16.7 µM]

Going on with the list:
SMILES | HIV Env fusion
COCCN1C(=O)[C@H]2C[C@@]13O[C@H](C1CCCCC1)N=C3CC1c3ccccc3C[C@@]12C (some centres not stated) | -42
CCc1nc(N2[C@@H](C#N)[C@@H](c3ccccc3-c3ccccc3C)[C@@H]2CO)sc1C | -28[16.7 µM]
CO[C@@H]1CN(C)C(=O)c2ccc(NC(=O)C3CCOCC3)cc2OC[C@H](C)NC[C@H]1C | -9[16.7 µM]
COC(=O)[C@]12C[C@H](CC(=O)N3CCC(c4ccccc4)CC3)C(=O)N(CCC3=CCCCC3)C1=C[C@H](C(C)(C)C)O[C@@H]2C | 2
COCC(=O)Nc1ccc2c(c1)OC[C@H](C)N(C(=O)CC1CC1)C[C@@H](C)[C@@H](OC)CN(C)C2=O | -19[16.7 µM]
O=C(NCC1CC1)[C@@H]1[C@@H](CO)[C@@H]2Cn3c(ccc(-c4cncnc4)c3=O)[C@@H]2N1C(=O)NC1CCCC1 | -19[16.7 µM]
C[C@H](CO)N1C[C@H](C)[C@H](CN(C)Cc2ccc(-c3ccccc3)cc2)Oc2ccc(NS(C)(=O)=O)cc2CC1=O | -7[16.7 µM]
CO[C@H](CN(C)S(=O)(=O)c1ccc(F)cc1)[C@H](C)CN(C(=O)Nc1ccccc1F)[C@@H](C)CO | -10[16.7 µM]
COc1ccccc1CNC(=O)C1CCN(Cc2nc(-c3ccc(Cl)cc3)oc2C)CC1 | 16
CO[C@H]1CN(C)C(=O)c2cc(NS(=O)(=O)Cc3ccccc3)ccc2OC[C@@H](C)NC[C@H]1C | -1[16.7 µM]
CN(C)C(=O)C[C@@H]1C[C@H]2c3cc(NC(=O)Nc4ccc(F)cc4)ccc3O[C@H]2[C@H](CO)O1 | -18[16.7 µM]
CCC(=O)N1C[C@@H](O)COC[C@@H]2O[C@@H](CC(=O)NC)CC[C@H]21 | -1[16.7 µM]
CCNC(=O)[C@H]1[C@H](CO)[C@H]2Cn3c(ccc(-c4cncnc4)c3=O)[C@H]2N1Cc1ccc2c(c1)OCO2 | 4[16.7 µM]
O=C(N[C@H](C(=O)N1CCC[C@H]1C(=O)NCc1ccccc1)c1ccccc1)C1CCCC1 | -2
CO[C@@H]1CN(C)C(=O)c2ccc(NC(=O)Nc3c(C)noc3C)cc2OC[C@@H](C)N(C(=O)Nc2cccc(Cl)c2)C[C@H]1C | 4[16.7 µM]
COc1cccc(NC(=O)Nc2ccc3c(c2)C(=O)N(C)C[C@H](OC)[C@@H](C)CN(CC2CC2)[C@H](C)CO3)c1 | -6[16.7 µM]
O=C(C(=O)N1CCC(CNS(=O)(=O)c2ccc3ccccc3c2)CC1)c1cc2ccccc2o1 | 2
CCOC(=O)C1=C(C(=O)OCC)C2N(Cc3ccc(Br)cc3)c3ccccc3[C@@]23C[C@@H](C(=O)OC)N(S(=O)(=O)c2ccc(Br)cc2)C3=N1 (some centres not stated) | ?
O=C(C[C@H]1CC[C@H]2[C@@H](COC[C@H](O)CN2Cc2ccc(Oc3ccccc3)cc2)O1)N1CCc2ccccc2C1 | 6[16.7 µM]
CO[C@H]1CC[C@H]2CCN(C)C(=O)[C@@H](C)[C@H](OC)CN(C)C(=O)c3cccc(C#N)c3OC[C@@H]1O2 | -21[16.7 µM]
C[C@@H]1CN([C@@H](C)CO)C(=O)c2cc(NC(=O)CCN3CCOCC3)ccc2O[C@H]1CN(C)Cc1ccc(C(F)(F)F)cc1 | 19[16.7 µM]
C[C@@H](NC(=O)C[C@H]1CC[C@H](NC(=O)c2cccnc2)[C@@H](CO)O1)c1ccccc1 | -6[16.7 µM]
Cc1nn(C)cc1NC(=O)C[C@@H]1CC[C@@H]2[C@@H](COc3ccc(NC(=O)C4CCC4)cc3C(=O)N2C)O1 | -4[16.7 µM]
COc1cccc(S(=O)(=O)N[C@@H]2CC[C@@H](CCN)O[C@@H]2CO)c1 | 18[16.7 µM]
CN1C(=O)c2cc(NC(=O)Cc3cccs3)ccc2OC[C@@H]2O[C@H](CC(=O)N[C@@H]3CCN(Cc4ccccc4)C3)CC[C@H]21 | -9[16.7 µM]
CO[C@@H]1CN(C)C(=O)c2cc(NC(=O)c3ccccc3F)ccc2OC[C@@H](C)N(CC2CCOCC2)C[C@H]1C | 22[16.7 µM]
CCN=C1NC(c2ccc(Cl)cc2)C(C(=O)OC)=C(C)N1Cc1cccc(C(F)(F)F)c1 (configuration not stated) | 35
CN1C(=O)c2cc(NC(=O)Nc3ccc(Cl)cc3)ccc2OC[C@@H]2O[C@@H](CC(=O)NCCN3CCCCC3)CC[C@H]21 | -16[16.7 µM]
Nc1ncnc2c1ncn2[C@@H]1O[C@H](C(=O)N[C@@H](CCc2ccccc2)C(=O)O)[C@@H](O)[C@H]1O | 22
COC(=O)[C@@H]1[C@@H](CO)[C@@H]2Cn3c(ccc(-c4ccccc4)c3=O)[C@@H]2N1Cc1ccccn1 | -8[16.7 µM]
COc1ccc2c3c([nH]c2c1)[C@@H](CO)N(C(=O)c1ccncc1)CC31CCN(Cc2cccnc2)CC1 | -15[16.7 µM]
C[C@H](NC(=O)C[C@H]1C[C@H]2c3cc(NC(=O)Cc4ccncc4)ccc3O[C@H]2[C@@H](CO)O1)c1ccccc1 | -6[16.7 µM]
C[C@H](O)[C@@H]1C(=O)N2CCc3c([nH]c4cccc(-c5ccccc5)c34)[C@@H]2C[C@@H]1N(C)C(=O)c1ccco1 | 21
NC(=O)c1ncn([C@@H]2O[C@H](C(=O)N[C@H](Cc3ccccc3)C(=O)N3CCN(c4ccc(Cl)cn4)CC3)[C@@H](O)[C@H]2O)n1 | -6
